Screening results (PubChem BioAssay)
Six1-Eya2 blk – inhibitors of human Six1/Eya2 interaction; activity change, % (test concentration not listed); hit rate 0.56% among 360,000; Q15475+O00167; AlphaScreen GST-Six1/His-Eya2 binding, biochemical; active compounds read low; control for the full effect not named in the record; in the data active = activity change below about -65%; inconclusive = about -30% to -65%; inactive = above about -30%; also: % is scaled to controls: 0 for no effect and ±100 for the full control effect
Target sequence (O00167 whole entry, looked up): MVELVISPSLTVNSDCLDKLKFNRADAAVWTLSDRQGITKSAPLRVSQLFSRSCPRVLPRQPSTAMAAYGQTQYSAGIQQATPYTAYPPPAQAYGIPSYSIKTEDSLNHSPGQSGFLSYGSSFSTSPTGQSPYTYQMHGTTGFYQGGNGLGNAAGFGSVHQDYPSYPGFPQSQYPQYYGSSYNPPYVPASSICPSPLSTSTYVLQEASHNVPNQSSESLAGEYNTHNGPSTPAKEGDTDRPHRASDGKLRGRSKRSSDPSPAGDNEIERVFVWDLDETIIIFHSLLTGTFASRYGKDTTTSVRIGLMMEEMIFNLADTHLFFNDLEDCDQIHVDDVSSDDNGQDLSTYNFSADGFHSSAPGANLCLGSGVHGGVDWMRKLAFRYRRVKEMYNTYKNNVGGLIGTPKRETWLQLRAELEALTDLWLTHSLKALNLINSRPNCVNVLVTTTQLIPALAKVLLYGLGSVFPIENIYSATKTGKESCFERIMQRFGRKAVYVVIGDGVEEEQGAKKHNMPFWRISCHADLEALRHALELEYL
Target sequence (Q15475 whole entry, looked up): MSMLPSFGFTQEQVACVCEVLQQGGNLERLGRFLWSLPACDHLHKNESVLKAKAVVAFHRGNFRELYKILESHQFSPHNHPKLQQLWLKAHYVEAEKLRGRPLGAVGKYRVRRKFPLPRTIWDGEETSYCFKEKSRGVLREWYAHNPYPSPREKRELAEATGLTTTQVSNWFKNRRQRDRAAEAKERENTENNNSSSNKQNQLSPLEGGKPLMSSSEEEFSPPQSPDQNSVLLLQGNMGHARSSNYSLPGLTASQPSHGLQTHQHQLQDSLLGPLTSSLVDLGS
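AlphaScreen with GST-Six1 and His-Eya2 (5X mix: 250 nM and 500 nM), glutathione donor and nickel acceptor beads; buffer 50 mM Tris pH 8.0, 300 mM NaCl, 1 mM TCEP; 1 h at 37 C in the dark.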
PINK1 expr mod – modulators of PINK1 expression. AID 624263. PINK1 immunofluorescence, high-content cytometry, 24 h. hit rate 0.2% among 410,000. Potency, µM (series often up to 76.6 µM), for the others: at the top dose activation (PINK1 increase), hits mostly activators; active = well fitted activation curve with a large enough effect; inconclusive = small, poorly fitted or top-dose-only effect; inactive = flat fitted curve, though single readings scatter; cell line not stated here;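 also: potency is read from the fitted curve at half-maximal effect; % of control where 0% means no effect; nearly all actives have a fitted effect of over 65% in size; a mitochondrial uncoupler was the plate control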
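Stable cell line treated 24 h with compounds at 5 concentrations (CCCP controls), then fixed and immunostained for PINK1 plus nuclear and cell stains; PINK1 immunofluorescence quantified by laser-scanning microplate cytometry.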
CtBP-E1A blk – CtBP/E1A binding inhibition; activity change, % (test concentration not listed); AlphaScreen GST-E1A/His-CtBP binding, 1536-well; active compounds read low; control for the full effect not named in the record; hit rate 0.49% among 340,000; AID 651724; in the data active means activity change below about -65%; inconclusive means about -30% to -65%; inactive means above about -30%; also: % is scaled to controls: 0 for no effect and ±100 for the full control effect
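GST-E1A and His-tagged CtBP (125 nM each as 5X stock) were preincubated with pin-transferred compound for 2 h at 37 °C in the dark, then glutathione donor and nickel acceptor beads were added for 1 h before AlphaScreen reading.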
D2 PAM – human D2 receptor positive allosteric modulation | P14416 | DiscoveRx D2 beta-arrestin cells, luminescence, 90 min; 100% = 57 uM dopamine signal | potentiation, % (concentration not given with the values) | hit rate 0.23% among 360,000 | AID 624464; active = potentiation of 50% or more; inconclusive = 30% to 50%; inactive = 30% or less;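 also: compound concentration not given in the record; tested on top of an EC20 dose of dopamine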
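D2 cells co-treated with compound plus 50 nM dopamine (EC20) for 90 min at 37 deg C to detect potentiation. Beta-arrestin recruitment was read as enzyme-fragment luminescence after 1 h at ambient temperature. Full response was set by 57 uM dopamine.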
D2 agonist – human D2 receptor agonism in beta-arrestin assay | activation, % (concentration not given with the values) | DiscoveRx PathHunter D2 beta-arrestin, luminescence, 90 min; 100% = 57 uM dopamine signal | P14416 | hit rate 0.084% among 360,000; in the data active = activation above about 40%; inconclusive = about 15% to 40%; inactive = below about 15%; also: compound concentration not given in the record; the text of the record calls up to 30% inactive
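Agonist mode: compounds alone added to overnight-plated D2 PathHunter cells for 90 min at 37 C, with 57 uM final dopamine (EC100) defining full response. Beta-arrestin recruitment detected by chemiluminescent reagent, read after 1 h at ambient temperature.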
TRPML1 ag – human mucolipin-1 channel agonism; TRPML1-expressing cells, Ca2+ dye fluorescence, FDSS; host cell line not named in the record; reference of the full effect not given here; activation, % (no concentration beside the values); hit rate 0.12% among 410,000; AID 624414; in the data active = activation above about 50%; inconclusive = about 30% to 50%; inactive = below about 30%; also: 0% is about no effect; the text of the record puts the active cut at 80%
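In this qHTS format, compounds were pin-transferred onto Ca8-dye-loaded TRPML1-DL cells induced with Tet overnight, and intracellular Ca2+ fluorescence was recorded kinetically for 110 s after a 10 s baseline. A subsequent 4uM final 54-4 (EC80) addition followed by a second 110 s read served as the antagonist phase.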
Starred values were filed as active, the others as inactive; ? = inconclusive; . = not tested or not shown; & = joins results of further samples; [ ] = dose if it differs, or a comment.

SMILES	Six1-Eya2 blk	PINK1 expr mod	CtBP-E1A blk	D2 PAM	D2 agonist	TRPML1 ag
CCOc1ccc(C(=O)NCC2CCCO2)cc1 (stereo unspecified)	5	?	10	2	-1.8	1.4
O=C(c1ccccc1F)N1CCN(c2ccccc2)CC1	0	3.8%[38.3 µM]	-3	-7	-2.5	1.9
O=C(c1ccc(-n2cnnn2)cc1)N(C1CCCCC1)C1CCCCC1	9	5.4%	12	0	0.1	-0.2
Cc1cc(NC(=O)CSc2nc(C(C)C)nc3ccccc23)no1	1	2.3%	-1	-4	-3.0	4.2
CCOC(=O)c1cn2nc(N3CCCC3)ccc2n1	-4	-0.3%	2	-49	-0.5	-0.1
Nn1c(SCc2cccc(Oc3ccccc3)c2)nnc1C(F)(F)F	4	2.4%	2	0	-4.1	0.0
Cc1ccc(C(=O)O)cc1NC(=O)c1ccc(Cn2nc(C)c(Cl)c2C)o1	-3	-0.6%	0	2	-3.7	-0.9
COCCN(Cc1nc2ccccc2c(=O)[nH]1)C(=O)c1cccc(S(=O)(=O)N2CCCC2)c1	6	0.9%	-15	-3	-3.1	1.1
O=C(CSc1nccn1Cc1ccco1)Nc1ccc(F)cc1	0	-1.6%&9.6%	-1	-25	-5.7	0.8&0.3
CCCCSc1nc(C(=O)O)cc(=O)[nH]1	5	-0.4%	4	3	0.3	0.3
O=C1NCCN(Cc2ccc(Cl)c(F)c2)C1CC(=O)N1CCCCO1 (stereo unspecified)	-1	0.0%	.	-5	-1.9	1.5
CC(=O)c1ccc2c3c(ccc(O)c13)CC2	?	.	3	-11	0.2	-0.1
Cn1cc(C(N)=O)c2ccccc21	6	-0.9%	-5	-31	-4.1	.
CCOC(=O)C1(Cc2ccc(OC)cc2)CCN(C(=O)CN2CCCCC2=O)CC1	5	-0.4%	-9	-3	-3.0	0.8
CC(C)NC(=O)CN1CCN(C(=O)c2ccc3oc(CCCc4ccccc4)nc3c2)CC1	10	0.7%	0	-3	3.0	1.0
Cc1nccc(-c2ccc(-n3c(C)ccc3C)cc2)n1	2	1.7%	-15	2	-0.1	0.3
COc1cc(-c2noc(C)c2C#CC2(O)CCCCC2)cc(OC)c1OC	-1	0.0%	1	-7	4.6	1.5&0.0
Cn1c(SCc2cc(=O)n3cc(Br)ccc3n2)nnc1C1COc2ccccc2O1 (stereo unspecified)	-5	-2.8%	1	-7	-1.9	0.5
COc1ccc(-c2c(C)[nH]n3c(=O)c(Cc4ccccc4)c(C)nc23)cc1	-67*	0.7%	-71*	-40	-2.5	-0.8
COc1ccc(-c2nc(C(N)=O)c3[nH]c(=O)n(-c4ccccc4OC)c3n2)c(OC)c1	3	7.8%	-16	-4	-0.4	0.6
COC(=O)C1CCN(CC(=O)NC(=O)NC2CCCCC2)CC1	2	-1.1%	12	-4	-0.7	-0.2
COC(=O)C(Cc1ccccc1)NC(=O)c1cc(S(=O)(=O)N(C)C)ccc1Cl (stereo unspecified)	5	0.5%	1	-3	2.7	-0.3
O=C(c1ccccc1)c1ccc(Oc2ncccn2)cc1	7	6.4%	8	-3	-2.9	3.2
O=S1(=O)C=C(SCc2ccccc2)Nc2ccccc21	6	-2.2%	-11	-14	0.1	0.6
O=C(c1ccc2nc[nH]c2c1)N1CCc2ccccc2C1	4	-1.2%	30	-8	-3.0	-0.3
Cc1cc(C)nc(NS(=O)(=O)c2ccc(NC(=O)C3COc4ccccc4O3)cc2)n1 (stereo unspecified)	-9	2.9%	0	-2	-1.5	0.6
O=C(NNC(=O)c1ccccc1-n1cccc1)c1ccc(Cl)cc1	-12	2.3%	3	-11	0.6	0.0
COc1ccc(C(C)=O)cc1COC(=O)CCCN1C(=O)c2ccccc2C1=O	-4	-0.2%	-1	2	5.8	-0.4
Cc1cc(C)c(S(=O)(=O)c2ccc(F)cc2)c(C)c1	15	0.4%	5	-7	2.1	1.4
CC(=O)C[C@@H](O)CC(=O)[C@@H]1OC(=O)CC/C=C\Cc2ccccc21	-1	-0.7%	-23	-5	-0.1	-0.4
Cc1ccccc1NC(=O)CN(C)S(=O)(=O)c1cccs1	1	7.2%	23	15	0.7	-1.1
O=C(NCCc1ccccc1)C1COc2ccccc2O1 (stereo unspecified)	3	0.7%	.	-8	2.3	3.5
S=c1[nH]c2ccccc2n1CCOc1ccccc1	-5	1.6%	-1	-2	-2.5	0.2
CCCc1c(C(=O)N/N=C(\C)c2ccccn2)nnn1-c1nonc1N	?	-0.3%	?	-9	-2.3	-0.2
O=C(CSc1nnc(COc2ccccc2)o1)c1ccccc1	6	7.5%[38.3 µM]	11	-5	-3.4	-0.6
CCc1c(O)nc(SCC(=O)Nc2ccc(OC)cc2)n(C2CCCCC2)c1=O	-17	5.8%[38.3 µM]	-13	0	-0.6	-0.3
COc1ccc(NC(=O)CCc2nc(-c3ccccc3F)no2)cc1	5	12%	-2	2	1.8	0.8
Cc1c(C)n(CC(O)CN2CCOCC2)c2ccccc12 (stereo unspecified)	-4	.	8	-2	-1.4	-0.2
O=C(CSc1nc2ccccc2c(=O)[nH]1)N1CCCCCC1	5	1.2%	-3	-2	-0.7	-1.0
CCCCOc1ccc(C(C)NC(=O)CCS(=O)(=O)Cc2ccc(C)cc2)cc1 (stereo unspecified)	-2	12%	5	-19	-1.9	2.2
CCCCC[C@@H](C)N1C[C@H](COCc2ccccc2)Oc2cc(N3CCC[C@H]3COC)ccc2S1(=O)=O	13	0.6%	-10	.	.	0.3
Cc1nn(Cc2ccccc2Cl)c2sc(C(=O)Nc3nccs3)cc12	2	13%	7	8	3.0	1.9
CC(=O)Nc1c2c(nn1-c1cccc(Cl)c1)CS(=O)C2 (stereo unspecified)	1	-0.3%	4	1	0.4	-0.7
CSc1ncccc1C(=O)OCC(=O)Nc1ccc(C)c(S(=O)(=O)N2CCOCC2)c1	-11	3.8%	1	1	-2.5	0.8
COC(=O)c1cccc(NC(=O)C2COc3ccccc3O2)c1 (stereo unspecified)	-2	1.7%	-3	-19	-5.0	1.2
CC(=O)c1c(C)[nH]c(C(=O)CSc2nnc(C3CCCCC3)n2N)c1C	-3	-0.6%	-1	0	0.2	1.7
COC(=O)c1oc2c(c1C)C1(CCC2)SCCS1	-7	7.1%	0	-6	-1.0	2.7
Cc1ccc(C)c(C(O)c2ncc(-c3ccccc3F)[nH]2)c1 (stereo unspecified)	-8	0.2%	0	-2	3.7	-0.5
COc1ccc(S(=O)(=O)N2CC(=O)Nc3ccccc32)cc1F	-1	2.4%	5	-1	-4.2	-0.2
COC(=O)c1ccc(C2C(C#N)=C(N)Oc3cc(N)ccc32)cc1 (stereo unspecified)	0	7.3%	-5	-2	0.7	1.5
NNS(=O)(=O)c1ccc2c(c1)Cc1cc(S(=O)(=O)NN)ccc1-2	-19	2.8%	?	-19	-9.3	2.0
COc1ccccc1C(=O)NCC(=O)OC(C)C(=O)NC1CCCCC1C (stereo unspecified)	0	2.8%	-3	-1	1.7	1.5
Cc1cccnc1CN1CCN(Cc2nc(Cc3cccc(F)c3)no2)CC1	-1	-0.8%	.	-12	-4.8	-0.3
CCOC(=O)[C@]12CCCC=C1N(Cc1ccc(Cl)cc1Cl)C(=O)[C@H](CC(=O)N1CCN(C(=O)c3ccco3)CC1)C2	-16	-0.4%	0	.	.	-0.6
O=C1C=C(c2ccccc2)OC(=O)C1C(=O)c1ccccc1 (stereo unspecified)	7	-0.2%[38.3 µM]	2	-8	-2.7	0.2
COc1ccc(CN(C)CC(=O)c2c(N)n(Cc3ccccc3)c(=O)n(C)c2=O)c(OC)c1	3	.	2	-9	-0.6	0.9
Cc1nc(Cl)sc1C(=O)NC(C)c1ccc(Cl)cc1 (stereo unspecified)	-9	?	12	-11	0.1	-0.4
CC1CCC(NC(=O)c2ccc(NS(=O)(=O)c3ccc4[nH]c(=O)[nH]c4c3)cc2)CC1 (stereo unspecified)	8	?	-2	-14	5.3	0.3
O=C(Nc1cc2ccccc2oc1=O)c1ccccc1	9	6.4%	.	-5	-3.2	-0.7
N/C(=N\OC(=O)CCCc1ccccc1)c1cccnc1	0	2.1%	3	13	0.4	0.0

Printed as active in Six1-Eya2 blk, of those listed so far:
SMILES	Six1-Eya2 blk	PINK1 expr mod	CtBP-E1A blk	D2 PAM	D2 agonist
COc1ccc(-c2c(C)[nH]n3c(=O)c(Cc4ccccc4)c(C)nc23)cc1	-67*	0.7%	-71*	-40	-2.5

Continuation.
SMILES	Six1-Eya2 blk	PINK1 expr mod	CtBP-E1A blk	D2 PAM	D2 agonist	TRPML1 ag
Cc1cc(OCc2cc(C(=O)N3CCCCCC3)no2)cc(C)c1Cl	10	21%	45	-19	-4.9	2.8
O=C(CCSc1ccccc1)NCCN1CCOCC1	3	?	-4	-9	-2.0	-0.1
Cc1nn(-c2ccccc2)c2c1C1(C(=O)N(C(C)C)c3ccccc31)C(C#N)=C(N)O2 (stereo unspecified)	-7	-0.9%	-3	60*	11	-0.7
CCOC(=O)C1CCCN(C(=O)c2cc(-c3ccccc3)on2)C1 (stereo unspecified)	4	-0.1%[38.3 µM]	6	-1	-0.8	1.0
OC(CNCc1ccco1)COc1ccccc1 (stereo unspecified)	-1	1.3%	-3	-29	4.5	-1.2
CCOC(=O)c1cccc(NC(=O)CCNS(=O)(=O)c2cc(Br)cnc2N)c1	-1	1.2%	-8	-8	0.8	0.9
O=C(CSc1nnnn1Cc1ccccc1)NC1CCCCC1	2	-0.4%	0	-6	-1.4	-0.2
COc1cc(NC(=O)N2CCc3nc(NCc4cccc(Oc5ccccc5)c4)ncc3C2)cc(OC)c1OC	-21	7.2%	-16	-7	10	-0.7
Cc1ccc(S(=O)(=O)Nc2c(C)[nH]c(=O)[nH]c2=O)cc1C	2	0.9%	0	-19	-0.6	0.3
CCN(c1ccccc1)S(=O)(=O)c1ccc(OC)c(NC(=O)c2ccccc2OC)c1	-2	?	6	-21	-6.5	-0.1
COc1ccc2cc(OCC(=O)NNC(=O)Nc3ccc(C(C)=O)cc3)ccc2c1	0	1.5%	6	-5	-3.9	1.8
COc1ccc(CC(Cc2ccc(OC)c(OC)c2)NC=O)cc1OC	2	1.1%	4	-2	2.3	-0.1
CCCC/C(O)=N\S(=O)(=O)c1ccc(N=NN(C)C)cc1	0	1.0%	6	3	-1.6	0.2
COc1ccc(C(=O)Nc2ccccc2-c2nnn(CC(=O)Nc3ccc4c(c3)OCCO4)n2)cc1	11	9.6%	15	3	0.1	0.2

Record cards, from the list above:
Cc1ccc(S(=O)(=O)Nc2c(C)[nH]c(=O)[nH]c2=O)cc1C is entered as Six1-Eya2 blk: 2; PINK1 expr mod: 0.9%; CtBP-E1A blk: 0; D2 PAM: -19; D2 agonist: -0.6; TRPML1 ag: 0.3
CCCC/C(O)=N\S(=O)(=O)c1ccc(N=NN(C)C)cc1 is entered as Six1-Eya2 blk: 0; PINK1 expr mod: 1.0%; CtBP-E1A blk: 6; D2 PAM: 3; D2 agonist: -1.6; TRPML1 ag: 0.2
COc1ccc2cc(OCC(=O)NNC(=O)Nc3ccc(C(C)=O)cc3)ccc2c1 is entered as Six1-Eya2 blk: 0; PINK1 expr mod: 1.5%; CtBP-E1A blk: 6; D2 PAM: -5; D2 agonist: -3.9; TRPML1 ag: 1.8
